TRPV1 PAM = HTS Assay for Compounds that Act as Potentiators of the Vanilloid Receptor 1; 0.02% of 320,000 active; TRPV1-expressing cells, Fluo-8 calcium influx, capsaicin EC20 potentiation; host cell line not named in the record; control for the full effect not named in the record; potentiation, % at 8.33 µM; AID 540277, 2011; active means potentiation above 80%; inconclusive means 30% to 80%; inactive means below 30%; note: 0% is about no effect
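Cells expressing TRPV1 were dye-loaded with Fluo-8 and read kinetically: 10 s baseline, 3 min after compound (agonist portion), then 2 min after EC20 capsaicin (allosteric enhancer portion). Calcium-bound dye fluorescence at 480/520 nm.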
gsp antagonist = qHTS for Antagonists of gsp, the Etiologic Mutation Responsible for Fibrous Dysplasia/McCune-Albright Syndrome: qHTS; AID 624288, 2012; gsp-mutant cells, cAMP HTRF, 30 min; control for the full effect not named in the record; 0.4% of 340,000 active; Potency, µM (doses to about 76.9 µM), for inactives: at the top dose activity change, negative = inhibition, most hits filed as inhibitors; active = falling curve of any shape with a large fitted effect; inconclusive = falling curve, mostly with a smaller effect; inactive = flat or rising curve; cell line not stated here;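 note: intracellular cAMP measured with PDE inhibitor Ro 20-1724 present during compound exposure; potency is the fitted concentration of half-maximal effect; % is set by controls: 0 for no effect and ±100 for the full control effect; nearly all actives have a fitted effect of over 65% in size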
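Measurement of cellular cAMP by homogeneous time-resolved fluorescence following a 30 min compound exposure at 37C. The PDE inhibitor […] was present throughout; the assay buffer was DPBS with 0.05% BSA and 0.005% Tween 20.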
ClpP mod = qHTS Assay for Activators of ClpP | ATP-dependent Clp protease proteolytic subunit (Bacillus subtilis (strain 168)), P80244 | purified B. subtilis ClpP, FRET peptide cleavage, 20 min | Potency, µM (doses to about 57.5 µM), inactives show at the top dose activity change, negative = active | 1.9% of 340,000 active | AID 651965, 2013; active = well fitted falling curve with a large enough effect; inconclusive = small, poorly fitted or top-dose-only effect; inactive = no such curve, though single readings can be large or run the other way; note: potency is the fitted concentration of half-maximal effect; the source files actives as falling curves though it sought activators and does not explain the sign; nearly all actives have a fitted effect of over 65% in size; many hits overshoot -100%
Target sequence (P80244 whole entry, looked up): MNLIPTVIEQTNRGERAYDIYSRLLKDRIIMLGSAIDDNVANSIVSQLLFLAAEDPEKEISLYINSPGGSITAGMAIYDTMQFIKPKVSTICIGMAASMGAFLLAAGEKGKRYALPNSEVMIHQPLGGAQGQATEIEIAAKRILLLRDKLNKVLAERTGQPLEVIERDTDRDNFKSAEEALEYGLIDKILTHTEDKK
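Purified B. subtilis ClpP, 10 microg/mL final in Tris/HCl pH8 with KCl, BSA, glycerol and Tween-20, cleaved an Abz/nitrotyrosine-quenched decapeptide. Fluorescence (ex 320, em 430) was read at 0 and 20 min at room temperature. Delta was normalized to 5.8 microM ADEP and DMSO/no-enzyme controls.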
TRPML1 inh = qHTS for Inhibitors of the Human Mucolipin Transient Receptor Potential 1 (TRPML1) | Mucolipin-1 (Homo sapiens), Q9GZU1 | TRPML1-inducible cells, Ca2+ dye fluorescence, FDSS; active compounds read low; inhibition of EC80 agonist-evoked calcium signal | activity change, negative = inhibition, % (no concentration beside the values) | 0.02% of 390,000 active | AID 624415, 2012; in the data active means activity change below about -50%; inconclusive means about -30% to -50%; inactive means above about -30%;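 note: stimulus is agonist 54-4 at its EC80 concentration; % is set by controls: 0 for no effect and ±100 for the full control effect; compound concentration not given in the record; the text of the record puts the active cut at -80%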
Target sequence (Q9GZU1 whole entry, looked up): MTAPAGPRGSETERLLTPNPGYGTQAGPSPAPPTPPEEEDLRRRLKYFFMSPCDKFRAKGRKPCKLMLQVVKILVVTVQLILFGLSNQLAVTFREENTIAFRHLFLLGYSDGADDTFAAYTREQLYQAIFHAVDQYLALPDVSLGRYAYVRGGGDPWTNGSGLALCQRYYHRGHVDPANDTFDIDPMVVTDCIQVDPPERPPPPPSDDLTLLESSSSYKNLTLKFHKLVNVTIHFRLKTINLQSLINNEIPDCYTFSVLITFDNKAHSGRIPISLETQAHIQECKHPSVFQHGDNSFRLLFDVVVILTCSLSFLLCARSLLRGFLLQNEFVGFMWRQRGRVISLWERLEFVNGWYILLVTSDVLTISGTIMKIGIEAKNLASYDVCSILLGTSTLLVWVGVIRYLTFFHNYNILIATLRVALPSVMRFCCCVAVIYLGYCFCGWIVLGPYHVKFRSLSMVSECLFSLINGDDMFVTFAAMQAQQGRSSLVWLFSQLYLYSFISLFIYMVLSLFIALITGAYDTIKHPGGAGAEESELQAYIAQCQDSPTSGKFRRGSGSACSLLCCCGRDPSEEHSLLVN
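TRPML1-DL cells, Tet-induced overnight (~16 h, 37 °C) at 1,500 cells/well, were loaded with Ca8 no-wash dye plus quencher for 45-90 min at room temperature. Compounds were pinned during FDSS kinetic reading; agonist 54-4 at EC80 (4 uM final) then added.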
Menin MLL FP FL = qHTS Assay for Inhibitors Targeting the Menin-MLL Interaction in MLL Related Leukemias: Competition With Fluorescein Labeled MLL-derived Peptide; FP activity change, % at 61.4 µM; Fluorescence polarization, fluorescein-MLL peptide displacement from menin; AID 1766, 2009; 290,000 tested, under 10 active; inconclusive = falling polarisation curve, or a change in total fluorescence; inactive = total fluorescence flat and polarisation flat or rising; no compound was filed as active; the % refers to the polarisation; negative = inhibition;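 note: % of control where 0% means no effect; inhibitors lower the polarisation; unlabelled MLL peptide was the positive control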
gsp agonist = qHTS for Agonist of gsp, the Etiologic Mutation Responsible for Fibrous Dysplasia/McCune-Albright Syndrome: qHTS; 0.13% of 340,000 active; gsp mutant cells, cAMP HTRF, 30 min; control for the full effect not named in the record; AID 624287, 2012; Potency, µM (highest dose often 76.9 µM), inactives show top-dose activation (cAMP increase), usual class: activators; active = well fitted activation curve with a large enough effect; inconclusive = small, poorly fitted or top-dose-only effect, or another doubt; inactive = no such curve, though single readings can be large or run the other way; cell line not stated here;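 note: phosphodiesterase inhibitor Ro 20-1724 added with compounds to block cAMP breakdown; potency is the fitted concentration of half-maximal effect; nearly all actives have a fitted effect of over 60% in size; about a fifth of the inactives were tested at one dose only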
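Cells in DMEM/10% FBS with G418 were pretreated with compounds in DMSO plus […] (300 uM stock) for 30 min at 37C. cAMP was measured by HTRF (cAMP-d2 plus anti-cAMP antibody-K) after 30 min at room temperature.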
Sfp inh = qHTS Assay for Inhibitors of Bacillus subtilis Sfp phosphopantetheinyl transferase (PPTase) | 4'-phosphopantetheinyl transferase ffp (Bacillus subtilis), Q9F4F7 | Biochemical Sfp PPTase activity, qHTS | Potency, µM, without a hit: max response, negative = inhibition, actives largely listed as inhibitors | 3.5% of 310,000 active | AID 1490, 2009; active = well fitted inhibition curve with a large enough effect; inconclusive = small, poorly fitted or top-dose-only effect, or another doubt; inactive = no such curve, though single readings can be large or run the other way;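 note: the enzyme is Sfp with the accession as filed and its product quenches rhodamine fluorescence; potency is the fitted concentration of half-maximal effect; 0% = enzyme reaction without inhibitor and -100% = no enzyme wells; top concentration of the series not given in the record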
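Fluorescence-quenching assay with 15 nM Sfp, 5 uM rhodamine-CoA and 12.5 uM BHQ-2-labelled ybbR peptide in pH 7.6 Hepes/MgCl2 buffer. Enzyme was pre-incubated with compound for 15 min at room temperature. Rate was taken from the 30-min fluorescence change (525/598 nm).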
The depositor's hits bear a star; u = inconclusive; x = no result given; [ ] = remark or other dose.

SMILES	TRPV1 PAM	gsp antagonist	ClpP mod	TRPML1 inh	Menin MLL FP FL	gsp agonist	Sfp inh
COCCn1c(SCC(=O)N2CCC(C)CC2)nc2c([nH]c3ccccc32)c1=O	-23.3	17.6%	-0.5%	22.2	x	-41.6%[inhibitor]	7.6%
Nc1cccc2c1C(=O)c1ccc(Cl)cc1C2=O	x	7.9%	x	3.6	x	6.7%	x
COc1cccc(C(=O)COC(=O)c2ccc(NC(C)=O)cc2)c1	14.8	4.5%	-2.6%	-3.2	8.9	8.1%	1.7%
CN(Cc1cccc(F)c1)C(=O)c1ccc(S(=O)(=O)N2CCCCCC2)cc1	x	2.9%	x	-12.2	x	u	x
O=C(CNC(=S)N(Cc1ccccc1)Cc1cccnc1)NCc1ccccc1	-8.5	-11.8%	x	-2.6	-1.7	-4.9%[15.4 µM]	16.5%
O=S(=O)(c1ccc2c(c1)CCCN2)N1CCCCC1	-10.1	-5.1%	-21.4%	0.1	x	-59.0%[inhibitor]	x
O=C(NNC(=O)C1[C@H]2CCCC[C@@H]12)NC1CCCCC1 (stereo not given in full)	u	8.1%	-0.3%	5.7	8.7	-20.3%	2.7%
COc1ccc(CCc2nnc(CCC(=O)NCCc3ncccc3C)o2)cc1	0.3	7.7%	1.2%	8.6	-2.1	-19.9%	-4.7%
Cc1ccc(S(=O)(=O)c2ccccc2)cc1S(=O)(=O)N1CCOCC1	-9.9	-12.5%	-0.1%	-9.6	1.3	-33.5%[inhibitor]	19.9%
CCN(c1ccccc1)S(=O)(=O)c1ccc(OC)c(NC(=O)c2cc(F)c(F)c(F)c2F)c1	x	5.0%	41.0%	59.2	x	-35.9%[inhibitor]	x
O=C(Oc1cccccc1=O)c1ccccc1	-5.9	-24.4%	0.6%	-4.6	-1.4	-0.7%	25.1µM*
CC(=O)NCCOc1cccc(OCCNC(C)=O)c1	1.6	8.0%	1.0%	-16.5	0.1	9.7%	17.9%
CCCS(=O)(=O)N1CCC(CCOc2ccccc2)(C(=O)OCC)CC1	-18.1	4.4%	-9.1%	9.5	1.5	-1.1%[15.4 µM]	15.2%
CC(C)(C)c1cc(=O)n2c(nc3ccccc32)[nH]1	-12.0	-2.5%	15.8µM*	-0.7	3.2	u	30.5%[activator]
CCCN1Cc2cccc(C(=O)NCc3ccc(C)cc3)c2C1=O	-17.7	12.3%	0.2%	4.8	0.6	3.8%	10.7%
O=C(CSc1ccc(Cl)cc1)NCc1ccncc1	-6.2	x	x	-14.3	-4.3	-5.7%[15.4 µM]	22.8%
O=C(O)C1=C[C@@H](c2ccc3c(c2)OCO3)C[C@@H](OCc2ccc(CO)cc2)O1	4.8	6.5%	-0.1%	-9.9	4.2	x	18.3%
Cc1ccc(NS(=O)(=O)c2ccc3c(c2)NC(=O)C(C)C(=O)N3)c(Cl)c1 (stereo not given)	-22.7	5.5%	-1.1%	1.5	2.5	-25.1%	2.2%
COc1cc(NC(=O)C2CCN(S(=O)(=O)c3cnc[nH]3)CC2)cc(OC)c1OC	15.6	5.2%	-0.6%	-7.2	6.4	-33.6%[inhibitor]	8.7%
Cc1ccc(S(=O)(=O)N2CCN(C(=O)N3CCOCC3)C2C(C)C)cc1 (stereo not given)	7.9	-6.0%	-0.4%	6.4	1.1	3.7%	19.7%
C=CCOC(=O)c1ccccc1C(=O)OCC1CO1 (stereo not given)	x	3.0%	x	36.0	x	9.9%	x
COc1cccc2sc(N3CCN(C(=O)C4COc5ccccc5O4)CC3)nc12 (stereo not given)	3.7	-9.0%	1.1%	-7.3	x	7.7%	x
Nc1cc(C(=O)OCC(=O)Nc2ccc(N3CCOCC3)cc2)ccc1Cl	-14.6	0.4%	-8.3%	1.6	x	1.3%	x
O=C1Cc2cc(S(=O)(=O)Nc3cccc(F)c3)ccc2N1	0.3	-0.3%	5.4%	-4.0	x	-5.9%	x
Cc1ccc[n+](C(C)C(=O)Nc2ccc(C)c(C)c2)c1 (stereo not given)	-1.6	-5.9%	1.1%	-13.4	2.6	-6.1%	12.4%
COc1ccc(-c2nc3ccccc3c(=O)n2CC(C)C)cc1	2.1	-16.0%	0.4%	11.6	0.3	-12.7%[15.4 µM]	u
O=C(Nc1ccc(NC(=O)C2CCCN2C(=O)OCc2ccccc2)cc1)c1ccco1 (stereo not given)	4.0	-2.1%	-2.1%	-7.7	-2.9	16.0%	2.6%
CCN(c1ccccc1)S(=O)(=O)c1ccc(Cl)c(NC(=O)CN2CCN(C)CC2)c1	3.3	-1.0%	2.5%	-2.1	x	-29.6%	x
O=C(CN(c1ccc(F)cc1)S(=O)(=O)c1ccc2c(c1)OCCO2)Nc1cccnc1	6.7	-5.0%	-3.1%	2.9	2.6	8.8%	2.6%
CC(C)C(=O)N1CCN(c2nc3ccc(Cl)cc3s2)CC1	4.2	-15.4%	2.0%	u	x	7.8%	5.2%
CC(C)C1CC(=O)NC(SCC(=O)Nc2ccc(Br)cc2)=C1C#N (stereo not given)	17.0	-10.7%	-1.3%	14.8	4.2	-29.8%	0.3%
NC1=NC2OC(CO)C(O)C2O1 (stereo not given)	x	x	-0.8%	16.1	x	2.3%	x
O=C(CSc1ccccc1)Nc1ccccc1N1CCOCC1	-12.2	-15.1%	-1.2%	25.5	1.1	-4.5%	6.6%
CC(C)c1ccc(N(CC(=O)N2CCN(Cc3ccccc3)CC2)S(C)(=O)=O)cc1	-14.5	-3.7%	x	16.5	1.4	-22.8%	7.9%
CNC(=O)CC1C(=O)N(c2ccc(Cl)cc2)C(=S)N1NC(=O)c1cccc(F)c1 (stereo not given)	-0.3	-7.0%	2.9%	8.2	2.9	u	4.7%
O=[N+]([O-])c1cccc(/C=N\N2CCN(c3ccc(Cl)cc3)CC2)c1	5.0	-13.2%	1.1%	10.5	-0.1	0.0%	8.2%
CC(C)C(NC(=O)OCc1ccccc1)C(=O)NCc1ccc(C(=O)O)cc1 (stereo not given)	18.7	2.9%	2.9%	-17.8	5.1	u	14.4%
CCN=C1S/C(=C\c2ccc(OC)c(OCC)c2)C(=O)N1CC	-15.5	x	x	x	6.6	x	6.2%
O=C1C2CCCN2C(c2ccc(F)c(F)c2)N1c1cccc(Cl)c1 (stereo not given)	x	7.7%	1.6%	1.8	1.8	-62.8%[inhibitor]	-12.2%
CCOC(=O)COn1c(=O)c(-c2cc3ccccc3o2)[n+]([O-])c2ccccc21	-3.3	-21.6%	-2.7%	-2.1	u	-16.1%	79.4µM*
CCC(=O)Nc1cccc(NC(=O)c2ccccc2Cl)c1	-2.4	-16.3%	x	2.4	-2.2	-38.2%[inhibitor]	25.5%
Cc1cccc(NC2=C(NC(=O)c3ccccc3)C(=O)c3ccccc3C2=O)c1	-2.1	-20.6%	-7.8%	2.1	-3.4	-6.4%[15.4 µM]	20µM*
COCCN(CCOC)S(=O)(=O)c1ccc(C(=O)NC2CCN(Cc3ccccc3)CC2)cc1	1.8	0.4%	2.6%	10.4	1.2	14.1%	6.4%
N#CCc1c(C#N)c(N)nc(N2CCN(S(=O)(=O)c3ccccc3F)CC2)c1C#N	13.4	6.8%	-1.4%	-16.8	12.0	-1.1%[15.4 µM]	7.3%
O=C1[C@@H]2Cc3c([nH]c4ccccc34)C(c3ccc([N+](=O)[O-])cc3)N2C(=O)CN1C1CC1 (stereo not given in full)	12.2	-3.7%	1.5%	-28.8	0.6	-6.9%	-3.0%
O=C(NCCOc1ccccc1Cl)c1ccc2c(c1)S(=O)(=O)c1cc(Cl)ccc1C2=O	x	-9.6%	0.6%	24.8	x	4.6%	x
Fc1ccc(Sc2cc(Cl)c(-c3ccccc3)nn2)cc1	-8.5	-4.7%	28.2µM*	31.1	1.8	-12.8%	-20.4%
Cc1cccc(N2CC(C(=O)Nc3ccc(S(=O)(=O)NCC4CCCO4)cc3)CC2=O)c1C (stereo not given)	0.3	13.3%	x	17.3	6.9	-10.9%[15.4 µM]	13.7%
CC1(C)CC2CC(C)(CN2CC(O)c2ccccc2)C1 (stereo not given)	-7.7	-2.6%	-2.8%	-25.0	7.2	1.1%	-13.1%
CCOc1ccccc1C(=O)N(Cc1ccco1)C1CCS(=O)(=O)C1 (stereo not given)	x	-0.5%	0.6%	-4.5	-2.3	4.0%	50.1µM*
CC(C)(C)CC(=O)N1CCN(Cc2ccc3c(c2)OCO3)CC1	-14.2	10.7%	1.4%	1.4	4.9	3.2%[15.4 µM]	19.5%
Cc1ccc(CNC(=O)c2cc(=O)c3ccccc3o2)cc1	19.2	-6.6%	x	9.2	0.4	10.4%[15.4 µM]	3.2%
CN(CCO)c1ccc(/C=N/Nc2nncc3ccccc23)cc1	-6.0	u	-0.4%	-5.4	-4.2	-6.6%	6.7%
O=C(Cc1ccccc1)Nc1nc(-c2cccc([N+](=O)[O-])c2)cs1	12.6	10.1%	0.5%	8.8	1.0	-30.8%[inhibitor]	20.4%
CCOC(=O)CCCCC(=O)c1[nH]c(=O)[nH]c1Cn1cnc2ccccc21	2.2	11.1%	-3.3%	4.0	2.3	-0.4%	16.7%
O=C(O)CC/C(=N\NC(=O)CNC(=O)c1ccc(F)cc1)c1ccccc1	-3.2	9.2%	-0.3%	6.3	2.0	-20.7%	3.2%

Source: PubChem (National Center for Advancing Translational Sciences (NCATS))
